Screening data (PubChem)
MgrA-DNA mod: modulators of Staphylococcus aureus MgrA DNA binding; inhibition, %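 (about 10 µg/mL by stock and volumes)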; fluorescence polarization; 84,000 tested, 0.13% active; AID 602314;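 active = above 50% in either of two replicates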;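 note: 0% = protein plus DNA without compound and 100% = DNA alone without protein; higher means less MgrA bound to DNA so lower polarization; one replicate is shown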
S aureus helic: blocks Staphylococcus aureus DNA helicase; purified S. aureus helicase, fluorescence unwinding assay; about half of the hits fall short of the stated cut; inhibition, %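 (tested at about 80 µM)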; 120,000 tested, 0.05% active;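 active = both duplicates at 50% or more, or one of them with a favoured structure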;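 note: 0% = mean of negative control wells and 100% = mean of positive control wells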
* marks the source's active call; other numbers are inactive results; . = not tested or not shown. Only part of the results is shown; the hit share may differ from the screen's.

molecule	S aureus helic	MgrA-DNA mod
Cc1cc2occ(CC(=O)Oc3ccc4c(c3)OCO4)c2cc1C	-1.0	.
O=C(NC1CC2CCC1CC2)c1ccccc1 (stereo not drawn)	.	-1.6
Cc1c(C#N)sc(C#N)c1O	.	-1.2
COC(=O)C1C(=O)CC(=O)CC1c1ccco1 (stereo not drawn)	-11.0	4.8
CC1(C)CC(=O)C2=C(C1)OC1=C(C2)C(=O)CC(C)(C)C1	6.0	-1.2
O=C(COC(=O)c1ccccc1NC(=O)c1ccco1)Nc1ccccc1	-8.0	.
Cc1ccc(-c2nc3ccc(S(N)(=O)=O)cc3[nH]2)s1	-14.0	.
O=P1(NCCO)C=C(c2ccccc2)OC(c2ccccc2)=C1	14.0	.
Cc1cc(NCCNc2ccccc2)c2ccc3ccccc3c2n1	-4.0	-5.0
CCC(c1nnnn1CCc1ccccc1)N(Cc1ccco1)Cc1cc2cc(C)ccc2[nH]c1=O (stereo not drawn)	8.0	-0.2

Other compounds.
molecule	S aureus helic	MgrA-DNA mod
CC(=O)Nc1cccc(-c2nnc(SCc3cccc(Cl)c3)n2C)c1	2.0	-0.5
CC(c1ccccc1)N1Cc2ccccc2C1 (stereo not drawn)	14.0	.
O=C(C1CCN(S(=O)(=O)c2cccc3nonc23)CC1)N1CCCC1	-29.0	.
CC1SC(C)C(=O)N(CC(=O)Nc2ccc3c(c2)OCCO3)C1=O (stereo not drawn)	-3.0	.
CCN1C(=O)/C(=c2/s/c(=C3\SC(C)=C(C)N3CC)c(=O)n2CC)N(C)C1=S	-1.0	0.0
CCOC(=O)NC(=O)c1cn(Cc2cccs2)c(=O)n(C)c1=O	.	-0.5
Cc1cc(S(=O)(=O)NCCc2ccccc2)c(C)s1	7.0	.
O=C(NCc1cccnc1)c1cc(-c2ccccn2)nc2ccccc12	-1.0	0.8
CC(C)(C)c1cc(C(=O)OCCN2CCCCC2)cc(C(C)(C)C)c1	-4.0	1.8
O=C(NCc1ccccc1)N1c2ccccc2Sc2ccccc21	12.0	0.9

Continued:
molecule	S aureus helic	MgrA-DNA mod
CC(C)(C)C(=O)N1CCCC1C(=O)Nc1ccccc1 (stereo not drawn)	-6.0	-1.5
Cc1ccc2nc(Nc3ccc(Cl)cc3)c(/C=N/O)c(=O)n2c1	11.0	-1.2
CC1=C(C(=O)OCCOc2ccccc2)C(c2cccc(Oc3ccccc3)c2)NC(=O)N1 (stereo not drawn)	.	-0.7
NC(=O)Cn1c(CN2CCCC2c2ccc3c(c2)OCCCO3)nc2ccccc2c1=O (stereo not drawn)	6.0	.
COc1ccc(OC)c(-c2csc(=Nc3cccnc3)n2Cc2ccco2)c1	15.0	.
Cc1nnc(SCC(=O)N2c3ccccc3Sc3ccccc32)n1N	-20.0	.
FC(F)n1c(=S)[nH]c2ccccc21	13.0	.
O=C(NC1CCCCC1)Sc1ccc(Cl)cc1	-11.0	.
O=C1/C(=C/c2ccc(Cl)cc2)CCC/C1=C\c1ccc(Cl)cc1	.	-2.5
O=C(CC1=NS(=O)(=O)c2ccccc2N1)NCCc1c[nH]c2ccccc12	-14.0	.

Additional entries.
molecule	S aureus helic	MgrA-DNA mod
CN(CCc1ccccn1)C(=O)c1cccc(OC(F)F)c1	-5.0	.
Cc1cc(Nc2ccccc2)n(CCC#N)n1	0.0	-1.1
COc1ccccc1NC(=O)C(c1ccccc1)N1CCOCC1 (stereo not drawn)	2.0	0.8
COc1ccccc1NC(=S)NC1CC2CCC1C2 (stereo not drawn)	.	-1.9
COC(=O)c1cnn2c(=O)c3c(n(C)c12)CCN(Cc1ccccc1)C3	19.0	.
COc1cccc(I(OC(C)=O)OC(C)=O)c1	.	5.8
Cc1cc(C)c2sc(N3CCCC3)nc2c1	-9.0	1.2
Cc1cc(Cl)ccc1OCCCC(=O)NN1CCOCC1	5.0	3.0
Cc1cccc(C)c1Nc1c(-c2ccsc2)nc2sccn12	8.0	1.2
CC(C)NC(=S)NNc1ccccc1C(F)(F)F	-4.0	.

Further entries
molecule	S aureus helic	MgrA-DNA mod
Cc1cc(/C=C2/C(=N)N3C=CSC3=NC2=O)c(C)n1-c1ccccc1	-11.0	-1.2
c1ccc(CSC23CC4CC(CC(C4)C2)C3)cc1	.	-0.9
CCOC(=O)Cc1csc(NC(=O)CSc2nc(N)c3c4c(sc3n2)CCCC4)n1	-10.0	.
S=C(NCc1cccnc1)Nc1ccc(Cl)c(Cl)c1	.	1.3
O=C(CC1SCCNC1=O)Nc1ccc(Cl)c(Cl)c1 (stereo not drawn)	18.0	2.8
Nc1c(N(C(=O)C2CCCO2)C2CCCC2)c(=O)[nH]c(=O)n1Cc1ccccc1 (stereo not drawn)	12.0	.
Nc1nc(-c2ccccc2Cl)cs1	.	-4.3
COC(=O)c1ccc(Nc2nc3ccc(C)cc3n3cnnc23)cc1	-38.0	.
CC(Oc1ccccc1)C(=O)N1CCCC1 (stereo not drawn)	9.0	-0.6
CCOC(=O)C1CCCN(C(=O)COc2ccc3oc4ccccc4c3c2)C1 (stereo not drawn)	-2.0	.

Continued:
molecule	S aureus helic	MgrA-DNA mod
COc1cc2c(cc1OC)CN(C(=O)CCC(=O)O)CC2	6.0	0.9
O=c1/c(=C\c2ccc(OCc3c(F)cccc3Cl)cc2)sc2nc3ccccc3n12	.	2.1
Cc1ccc2nc(SCC(=O)N(C)C3CCCCC3)c(C#N)cc2c1	-5.0	1.6
CCC(=O)N1c2ccc(S(=O)(=O)NC(C)C)cc2CC1C (stereo not drawn)	9.0	.
Cc1onc(-c2ccccc2)c1C(=O)NCCc1ccccc1	-5.0	.
O=C1CCCC2=C1C(c1cccc(O)c1)C1=C(CCCC1=O)O2	.	-0.9
CC1CN(C(=O)Nc2ccc3snnc3c2)c2ccccc21 (stereo not drawn)	7.0	-1.6
Cc1ccc(Cn2cc3c(n2)-c2c(oc(C(=O)NCCCN4CCN(c5ccc(F)cc5)CC4)c2C)CC3)cc1	-17.0	.
Clc1ncc(CN2CCOCC2)s1	.	-0.4
COc1ccc2oc(=O)cc(CN(C)c3c(C)cccc3C)c2c1	-9.0	.

The listing continues:
molecule	S aureus helic	MgrA-DNA mod
Cc1ccc2c(=O)c(C(=O)c3ccccc3)c[nH]c2n1	-16.0	.
Cc1ccc(S(=O)(=O)Nc2cccc3ccc(-n4nc(C)cc4C)nc23)cc1	-2.0	6.9
Cc1cc(-c2nnc(SCC(=O)c3cc4ccccc4oc3=O)o2)no1	-14.0	3.6
Cc1ccc(C2C3=C(COC3=O)Nc3c2c(=O)n(C)c(=O)n3C)cc1 (stereo not drawn)	-8.0	.
CCCCNC(=O)c1cn(CC)c2ccc(S(=O)(=O)N3CCCC3)cc2c1=O	-1.0	.
OCCCc1cn[nH]c1C(F)(F)F	.	0.5
C=CCSc1[nH]c(=O)c(C(=O)OCC)cc1C(N)=O	-28.0	.
CC(C)N1CSC(=S)N(Cc2ccccc2)C1	7.0	-0.6
OCc1ccc(-c2nn(Cc3ccccc3)c3ccccc23)o1	.	3.5
COc1cccc(NC(=S)NC(=O)c2ccccc2)c1	.	-0.6

(next part)
molecule	S aureus helic	MgrA-DNA mod
CCn1c(-c2cccnc2)n[nH]c1=S	9.0	.
CC(=O)c1ccc(NC(=O)c2cc(-c3ccccc3)nc3ccccc23)cc1	.	2.0
CCOc1ccc2[nH]c3nc(SCC4CCCO4)nnc3c2c1 (stereo not drawn)	5.0	2.0
O=C(O)COCC(=O)N1CCN(C(c2ccccc2)c2ccccc2)CC1	.	0.7
CC(C)CN(CC(C)C)C(=O)c1ccc2c(c1)NC(=O)/C(=C/c1ccccc1)S2	2.0	-0.1
O=C1c2ccccc2C(O)(c2ccccc2)N1CCc1ccccc1 (stereo not drawn)	6.0	-0.9
CN(C)/C=C1\CCCCN2C(=O)/C(=C\c3ccc(Cl)cc3)N=C12	-46.0	.
N/C(=N\c1nc2c(c(=O)[nH]1)CCC2)Nc1cccc(Cl)c1	16.0	-39.9
COc1ccc(C(=O)/C(=N\O)c2ccccc2)cc1	.	-2.7
Nc1ccc(C(=O)OCC(=O)c2ccc(Br)cc2)c(O)c1	-4.0	-0.6

(more compounds)
molecule	S aureus helic	MgrA-DNA mod
CC(OC(=O)C1CCN(S(=O)(=O)c2ccc3c(c2)OCCO3)CC1)C(=O)Nc1ncc(Cl)cc1Cl (stereo not drawn)	-16.0	.
COc1cc(OC)cc(C(=O)Nc2nc(-c3ccccc3)cs2)c1	-13.0	.
CCOc1cc(/C=C2\N=C(c3ccc(C)cc3)OC2=O)cc(Br)c1OC(C)=O	.	-0.7
O=C(c1ccc(NS(=O)(=O)c2cccc3cccnc23)cc1)N1CCCCC1	6.0	.
Nc1nc(SCC(=O)NC2CCCCC2)n[nH]1	-8.0	.
COc1ccc(C(=O)NC2=C(C)N(C)N(c3ccccc3)C2)cc1	-13.0	.
Cn1c(SCC(=O)Nc2ccccc2C#N)nnc1-c1ccccc1	.	-2.7
COc1ccc(Cc2nnc(C(=O)N3CCN(c4ccc(C)cc4C)CC3)o2)cc1OC	10.0	.
CCOC(=O)Cn1cnc2c(sc3nc(C)cc(C)c32)c1=O	17.0	.
Cc1ccc(OCCN2CCN(c3nc(NCc4ccccc4)c4ccccc4n3)CC2)cc1	10.0	-2.8

(next part)
molecule	S aureus helic	MgrA-DNA mod
COc1ccc(C2(C(=O)N3CCCC3)CCCC2)cc1OC	4.0	4.8
O=C(O)CSc1cc(-c2ccccc2)nc(SCC(=O)O)n1	4.0	.
CN(Cc1cccs1)C(=O)c1ccc2c(c1)OCO2	-8.0	.
CS(=O)(=O)N(CC(=O)N1CCC(C(N)=O)CC1)c1cccc(C(F)(F)F)c1	7.0	-0.4
Cc1ccccc1Nc1nc(N)nc(CSc2nc3ccccc3c(=O)n2C)n1	-7.0	.
O=C(NCc1nnc2c(Cl)cc(C(F)(F)F)cn12)c1ccccc1	.	0.2
NNC(=O)CNC(c1ccccc1)c1cc(Br)ccc1N (stereo not drawn)	6.0	.
CC(C)(C)OC(=O)N1CCC(C(=O)Nc2ccc(OC(F)(F)F)cc2)CC1	16.0	.
COc1ccc(C2=NOC(C(=O)N(C)Cc3ccccc3)C2)cc1OC (stereo not drawn)	-13.0	.
COc1cc(Cl)c(NS(=O)(=O)c2cc(-c3onc(C)c3C)ccc2OC)c(OC)c1	20.0	.

Going on with the list:
molecule	S aureus helic	MgrA-DNA mod
Nc1ccc(Sc2nnnn2-c2ccccc2)c(Cl)c1	10.0	6.8
CCc1ccccc1S(=O)(=O)Cc1ccc(C(=O)NCCc2ccccc2)o1	-16.0	.
O=C(NC1CCCC1)C1C2C=CC(C2)C1C(=O)N1CCOCC1 (stereo not drawn)	-8.0	2.0
O=C(Cn1ncc2c(=O)oc3ccccc3c21)Nc1ccc(Oc2ccccc2)cc1	6.0	.
OC1C(c2ccccc2)=NNC1c1ccccc1 (stereo not drawn)	7.0	-2.1
O=C(Nc1ccc2c(c1)OCCO2)[C@@H](c1ccccc1)N1Cc2ccccc2C1=O	-13.0	.
Clc1c(-c2nnc(-c3ccc(N4CCOCC4)cc3)o2)sc2ccccc12	3.0	0.1
N#Cc1ccc(N2CCCCC2)cc1	-3.0	3.4
CC(=O)Oc1ccc2c(c1)CCC1C2=CCC2(C)C(OC(C)=O)CCC12 (stereo not drawn)	.	-5.3
CCOc1ccc(S(=O)(=O)NCc2ccncc2)cc1C(C)C	3.0	-2.0

Profiles from above. Order of values: S aureus helic	MgrA-DNA mod
`Cc1ccc(S(=O)(=O)Nc2cccc3ccc(-n4nc(C)cc4C)nc23)cc1` is listed as -2.0	6.9
`Clc1c(-c2nnc(-c3ccc(N4CCOCC4)cc3)o2)sc2ccccc12` is listed as 3.0	0.1
`CC1CN(C(=O)Nc2ccc3snnc3c2)c2ccccc21` (stereo not drawn) is listed as 7.0	-1.6
`Cc1cc(Cl)ccc1OCCCC(=O)NN1CCOCC1` is listed as 5.0	3.0
`NC(=O)Cn1c(CN2CCCC2c2ccc3c(c2)OCCCO3)nc2ccccc2c1=O` (stereo not drawn) is listed as 6.0	.

(further entries)
molecule	S aureus helic	MgrA-DNA mod
O=S(=O)(Nc1ccccc1Oc1ccc(Cl)cc1Cl)c1ccc(Cl)cc1	.	-2.6
O=C(N1CCCC1)N1c2ccccc2Sc2ccccc21	-7.0	1.8
Clc1cccc(OCc2ncn(-c3cccc(Cl)n3)n2)c1	.	-2.2
CCOC(=O)C1C2CCC(C2)N1S(C)(=O)=O (stereo not drawn)	4.0	.
O=C(C1CCC1)N(c1nccs1)C1CCCCC1	17.0	.
CCS(=O)(=O)Nc1ccc(C(=O)N(C)Cc2ccccc2)cc1	-16.0	2.9
O=C1C=CC(=O)N1c1ccc(-c2cnc(-c3ccc(N4C(=O)C=CC4=O)cc3)nc2)cc1	10.0	26.7
N/C(=N/c1nc2ccccc2o1)NC(=O)C(Cc1ccccc1)N1C(=O)c2ccccc2C1=O (stereo not drawn)	2.0	0.4
COC(=O)c1c(N)sc(Cc2ccccc2)c1C	9.0	2.4
COc1cc(C2NCCS2)cc(OC)c1OC (stereo not drawn)	-6.0	1.1

Later entries.
molecule	S aureus helic	MgrA-DNA mod
Cc1ccc(C(=O)N(C(=O)c2ccc(C)cc2)c2cc(C)on2)cc1	-17.0	.
O=C1CSC(=O)N1CC(O)COc1ccc(OCC(O)CN2C(=O)CSC2=O)cc1 (stereo not drawn)	15.0	0.2
Cc1ccccc1NC(=O)Nc1sc(=S)n(C)c1C	-4.0	0.0
CCOC(=O)c1csc(-c2cccnc2)n1	.	-2.2
CC(C)CC(NC(=O)C1CCCCC1)C(=O)NC1CCC(C)CC1 (stereo not drawn)	7.0	-1.1
c1ccc(Sc2c(-c3ccccc3)nc3sccn23)cc1	.	-1.3
COC(=O)CSc1nsc(SCC(=O)OC)c1C#N	4.0	-0.6
Cc1c(CCC(=O)O)c(=O)oc2cc3oc4c(c3cc12)CCCC4	11.0	-2.0
CCOc1ccc2nc(/N=C/c3ccccc3O)sc2c1	1.0	8.7
